# Marburg entry inh: blocks Marburg virus binding to or entry into cells. actives 1.8% (n = 300,000). Marburg virus pseudotyped entry inhibition, cell reporter; control for the full effect not named in the record; about a third of the inactives were read at about 46 µM. Potency, µM (titrated, usually from 37.8 µM), without a hit: at the highest dose activity change, negative = inhibition, usual class: inhibitors. AID 540276; active = well fitted inhibition curve with a large enough effect; inconclusive = small, poorly fitted or top-dose-only effect, or effect the other way; inactive = flat fitted curve, though single readings scatter; tested in HEK293 cells; about a fifth of its hits are not listed in these tables; also: % is scaled to controls: 0 for no effect and ±100 for the full control effect; luciferase read-out
# SARS PLpro yeast: inhibitors of SARS-CoV papain-like protease in yeast | S. cerevisiae expressing SARS-CoV PLpro, growth rescue; control for the full effect not named in the record | Potency, µM (titrated, usually from 32.9 µM), without a hit: at the highest dose activity, positive = growth rescue | actives 0.19% (n = 330,000) | AID 485353; active means well fitted rising curve with a large enough effect; inconclusive means small, poorly fitted or top-dose-only effect; inactive means no such curve, though single readings can be large or run the other way; also: 0% is about no effect; nearly all actives have a fitted effect of over 55% in size; growth read by luminescence after 48 h
# Cruzain noTriton: cruzain (T. cruzi) inhibition without detergent; P25779; purified cruzain, Z-FR-AMC fluorescence, no detergent; Potency, µM, for inactives: max response, negative = inhibition, usual class: inhibitors; actives 2.3% (n = 200,000);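 also: plate controls were enzyme without inhibitor for no effect and buffer without enzyme for full effect; nearly all actives have a fitted effect of over 40% in size; top concentration of the series not given in the record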
# Target sequence (P25779 123-467 limits assumed): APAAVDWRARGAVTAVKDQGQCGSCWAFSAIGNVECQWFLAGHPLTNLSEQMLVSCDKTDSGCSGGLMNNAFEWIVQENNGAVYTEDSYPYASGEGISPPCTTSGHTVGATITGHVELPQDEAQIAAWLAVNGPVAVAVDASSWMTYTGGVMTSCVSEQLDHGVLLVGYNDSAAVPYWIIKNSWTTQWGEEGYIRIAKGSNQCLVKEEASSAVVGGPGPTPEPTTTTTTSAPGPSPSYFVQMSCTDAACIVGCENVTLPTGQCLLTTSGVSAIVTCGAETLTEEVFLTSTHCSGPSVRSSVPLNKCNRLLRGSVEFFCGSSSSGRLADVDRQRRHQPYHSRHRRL
#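 Detergent-free condition (0.00005% Triton X-100) in acetate buffer pH 5.5 with DTT. 1.5 nM enzyme and compound were pre-mixed 15 min, then 2 uM Z-FR-AMC substrate added; reaction progress from fluorescence change between first and third reads (60 s).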
# RE007 growth inh: less growth of the S. pombe RE007 Vpr strain; S. pombe RE007 Vpr strain, BacTiter-Glo ATP luminescence, 24 h; control for the full effect not named in the record; Potency, µM (titrated, usually from 92.2 µM), for the others: top-dose activity change, negative = less growth; actives 0.21% (n = 360,000); active = well fitted falling curve with a large enough effect; inconclusive = small, poorly fitted or top-dose-only effect; inactive = no such curve, though single readings can be large or run the other way;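 also: % is scaled to controls: 0 for no effect and ±100 for the full control effect; nearly all actives have a fitted effect of over 50% in size; the assay follows cell death caused by Vpr and the record does not say whether a fall means rescue or toxicity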
#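 Fission yeast strain RE007, carrying one chromosomally integrated HIV-1 vpr copy, was seeded at OD 0.01 in PMG+AL medium with 23 nL pinned compound. After 24 h at 30 °C and 99% humidity, viability was read by BacTiter-Glo luminescence.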
# 2A StopGo: lowers the luciferase signal of an FMDV 2A StopGo reporter; human cells with a luciferase reporter of 2A StopGo recoding; control for the full effect not named in the record; Potency, µM (series often up to 57.9 µM), for inactives: at the highest dose signal change, negative = less light; actives 1.2% (n = 410,000); AID 1159524; active = well fitted falling curve with a large enough effect; inconclusive = small, poorly fitted or top-dose-only effect; inactive = no such curve, though single readings can be large or run the other way; tested in HEK293T cells; also: % is scaled to controls: 0 for no effect and ±100 for the full control effect; nearly all actives have a fitted effect of over 45% in size; luciferase light after 4 h
# LASV entry inh: blocks Lassa virus binding to or entry into cells; Lassa virus pseudotype entry inhibition, cell reporter; control for the full effect not named in the record; Potency, µM (titrated, usually from 37.9 µM), for the others: top-dose activity change, negative = inhibition, hits mostly inhibitors; actives 1.2% (n = 300,000); active means well fitted inhibition curve with a large enough effect; inconclusive means small, poorly fitted or top-dose-only effect, or effect the other way; inactive means flat fitted curve, though single readings scatter; tested in HEK293 cells; also: % is scaled to controls: 0 for no effect and ±100 for the full control effect; nearly all actives have a fitted effect of over 50% in size; luciferase read-out
# NS1 inh: blocks influenza NS1 protein function | AID 2326 | Potency, µM (titrated, usually from 46.1 µM), for inactives: at the top dose activity, positive = more growth | actives 0.4% (n = 270,000) | S. cerevisiae slowed by influenza A NS1, growth recovery by OD600; active means well fitted rising curve with a large enough effect; inconclusive means small, poorly fitted or top-dose-only effect; inactive means no such curve, though single readings can be large or run the other way; also: nearly all actives have a fitted effect of over 50% in size
#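 Growth recovery, yeast-based: influenza A NS1 expressed in S. cerevisiae causes slow growth, and suppressors are detected by OD600. The parent strain without NS1 is used as positive control.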
# Cruzain Triton: inhibitors of Trypanosoma cruzi cruzain with detergent. Potency, µM, for inactives: max response, negative = inhibition, actives largely listed as inhibitors. AID 1478. P25779. actives 0.43% (n = 200,000). purified cruzain, Z-FR-AMC fluorescence, 0.01% Triton;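 also: plate controls were neutral wells for no effect and buffer without enzyme for full effect; nearly all actives have a fitted effect of over 40% in size; top concentration of the series not given in the record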
#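 Read-out: AMC fluorescence (360 nm excitation, 450 nm emission), four reads over 2 min, first-to-third difference used. Conditions: cruzain 1.5 nM, Z-FR-AMC 2 uM, pH 5.5 acetate, 5 mM DTT, 0.01% Triton X-100.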
# * = called active by the depositor; ? = inconclusive; . = not tested or not shown; & = joins results of further samples; [ ] = remark or other dose. Unless noted, calls follow the shape of the dose curve; as a rule, active = well fitted curve in the direction sought with a large enough effect; inconclusive = small, poorly fitted or top-dose-only effect, or another doubt; inactive = no such curve, though single readings can be large; an effect the other way counts as inactive or inconclusive. Potency is read from the fitted curve at half-maximal effect.
SMILES,Marburg entry inh,SARS PLpro yeast,Cruzain noTriton,RE007 growth inh,2A StopGo,LASV entry inh,NS1 inh,Cruzain Triton
Cn1cc(C(=O)NCc2cccs2)c(=O)c2cc(S(=O)(=O)N3CCCC3)ccc21,?,26%,?,3%,-2%,-22%,1%,-2.5%
CC(Oc1ccc(C(=O)c2ccc(F)cc2)cc1)C(=O)N1CCOCC1 (configuration not stated),-7%,0%,.,1%,-22%,24%,.,.
CC(C)(C)c1ccc(S(=O)(=O)CCc2ccccn2)cc1,18%,9%,2%,13%,34%[activator],?,-7%,2.4%
CCC(=O)N1CCN(CCN=CC2=C(O)CC(c3ccc(OC)cc3)CC2=O)CC1 (configuration not stated),-14%,?,2%,4%,-23%,-17%,-2%,-3.6%
COc1ccc(OC)c(CNC(=O)c2ccc3nc(C(C)C)oc3c2)c1,.,.,-1%,.,10%,-19%[46.1 µM],.,-2.4%
Cc1cc(OC(=O)Cc2cccc3ccccc23)c([N+](=O)[O-])c(=O)[nH]1,?,7%,-4%,.,-16%,?,-2%,-1.9%
CN(C)c1cc(N)c2c(n1)CCC2 (tested in a mixture with another compound),-31%,-6%,1%,2%,12%,?,-22%,1.3%
COc1ccc(S(=O)(=O)c2cnc3ccc(Cl)cc3c2N2CCCCC2C)cc1 (configuration not stated),?,.,0%,.,-2%,.,.,-5.6%
CC(C)c1ccccc1NC(=O)C1C2C=CC(C2)C1C(=O)O (configuration not stated),.,3%,.,-2%,-22%,.,-2%,.
Cc1ccc(N(C(=O)c2snc(C(N)=O)c2N)C(C(=O)NC2CCCC2)c2ccco2)cc1 (configuration not stated),?,3%,.,5%,-15%,?,3%,.
CC(=O)NNC(=O)CCC(=O)Nc1ccccc1,16%,-3%,-3%,11%,15%,-17%[14.3 µM],-2%,6.3%
O=C(CCn1c(=S)[nH]c2ccccc2c1=O)NCCc1ccc(Cl)cc1,?,1%,.,11%,-5%,-5%,.,.
COc1cc(OC)cc(C(=O)NCCN2CCOCC2)c1,7%[46.1 µM],5%,1%,30%,4%,18%,7%,0.0%
COC(=O)C1CN(C(=O)C(C)Oc2ccc(C)c(C)c2)c2ccccc2O1 (configuration not stated),.,1%,.,-10%,-21%,.,-2%,.
CC(=O)c1cccc(N/C=C\c2nnnn2-c2ccc(F)cc2)c1,6%,-11%,-29%,.,17%,2%,13%,-4.1%
COc1ccc(CNC(=O)c2c(O)nc3cc(C)ccn3c2=O)cc1,9%[46.1 µM],.,2%,.,13%,.,.,0.1%
Cc1cc(C)nc(N2N=C(C(C)(C)C)CC2=O)n1,15%,6%,5%,1%,4%,?,6%,4.6%
Cc1ccc(C2NC(=O)c3n[nH]c(-c4cccs4)c32)cc1 (configuration not stated),-19%[46.1 µM],.,-9%,.,-24%,9%[46.1 µM],.,-5.3%
COc1ccc(NC(=O)CN(C)C(=O)Cc2n[nH]c(=O)c3ccccc23)cc1,16%[46.1 µM],2%,.,3%,7%,6%,.,.
CC(=N\NC(=O)c1ccccc1)/C(=N/O)C(=O)Nc1ccccc1,-7%[46.1 µM],-9%,.,-10%,-10%,3%[46.1 µM],-2%,.
CSc1ccc(S(=O)(=O)NCC(=O)OCC(=O)N2CCCC2=O)cc1[N+](=O)[O-],?,2%,.,-6%,-18%,16%,.,.
CCCn1nc2cc(C(=O)NCc3ccc(OC(F)(F)F)cc3)ccc2c1OCC,.,-5%,?,3%,-15%,.,5%,-10%
Cc1ccc(C(=O)Nc2nc(N)n(-c3ccccc3)n2)cc1,-4%,0%,.,-17%,35%[activator],?,-6%,.
CCN1CCN(Cc2c3ccccc3cc3ccccc23)CC1,?,-2%,.,-11%,-12%,?,-3%,.

# 12 successive compounds from above, quoted:
SMILES,Marburg entry inh,SARS PLpro yeast,Cruzain noTriton,RE007 growth inh,2A StopGo,LASV entry inh,NS1 inh,Cruzain Triton
COc1cc(OC)cc(C(=O)NCCN2CCOCC2)c1,7%[46.1 µM],5%,1%,30%,4%,18%,7%,0.0%
COC(=O)C1CN(C(=O)C(C)Oc2ccc(C)c(C)c2)c2ccccc2O1 (configuration not stated),.,1%,.,-10%,-21%,.,-2%,.
CC(=O)c1cccc(N/C=C\c2nnnn2-c2ccc(F)cc2)c1,6%,-11%,-29%,.,17%,2%,13%,-4.1%
COc1ccc(CNC(=O)c2c(O)nc3cc(C)ccn3c2=O)cc1,9%[46.1 µM],.,2%,.,13%,.,.,0.1%
Cc1cc(C)nc(N2N=C(C(C)(C)C)CC2=O)n1,15%,6%,5%,1%,4%,?,6%,4.6%
Cc1ccc(C2NC(=O)c3n[nH]c(-c4cccs4)c32)cc1 (configuration not stated),-19%[46.1 µM],.,-9%,.,-24%,9%[46.1 µM],.,-5.3%
COc1ccc(NC(=O)CN(C)C(=O)Cc2n[nH]c(=O)c3ccccc23)cc1,16%[46.1 µM],2%,.,3%,7%,6%,.,.
CC(=N\NC(=O)c1ccccc1)/C(=N/O)C(=O)Nc1ccccc1,-7%[46.1 µM],-9%,.,-10%,-10%,3%[46.1 µM],-2%,.
CSc1ccc(S(=O)(=O)NCC(=O)OCC(=O)N2CCCC2=O)cc1[N+](=O)[O-],?,2%,.,-6%,-18%,16%,.,.
CCCn1nc2cc(C(=O)NCc3ccc(OC(F)(F)F)cc3)ccc2c1OCC,.,-5%,?,3%,-15%,.,5%,-10%
Cc1ccc(C(=O)Nc2nc(N)n(-c3ccccc3)n2)cc1,-4%,0%,.,-17%,35%[activator],?,-6%,.
CCN1CCN(Cc2c3ccccc3cc3ccccc23)CC1,?,-2%,.,-11%,-12%,?,-3%,.

# More records:
SMILES,Marburg entry inh,SARS PLpro yeast,Cruzain noTriton,RE007 growth inh,2A StopGo,LASV entry inh,NS1 inh,Cruzain Triton
C=C(COC(=O)CCC(=O)O)CC1CC(O)[C@]2(C)OC3CC4OC5C[C@]6(C)O[C@]7(C)CCC8OC9C[C@]%10(C)OC%11C(C)=CC(=O)OC%11CC%10OC9C[C@@H](C)C8OC7CC6O[C@]5(C)C/C=C\C4OC3CC2O1 (some centres not stated),.,8%&1%,.,15%,-26%,.,-10%,.
COc1ccc(C)cc1NC(=O)COC(=O)c1ccc(OCc2ccc(Cl)cc2Cl)c(OC)c1,6%,12%,25µM*,-16%,-15%,1%,-1%,-1.4%
CCOc1ccc(NC(=O)C(C)Sc2nccn2C)cc1 (configuration not stated),.,-1%,.,-6%,14%,.,-16%,.
COc1ccc2c(c1)C(=O)[C@@H](OC(=O)NCc1ccc3c(c1)OCO3)[C@H](c1ccc(OC)c(Br)c1)O2,-38%&-38%,-8%,?,.,.,?,28%,6.5%&-6.6%
O=C(NC1CCCc2ccccc21)c1ccccc1Br (configuration not stated),1%,-9%,3%,-22%,.,26%,5%,0.8%
O=C(/C=C/c1ccccc1)N1CCC(Cc2ccccc2)CC1,?,-6%,-4%,-15%,28%,3%,-75%,-4.7%
CC1CCCCN1C(=O)COC(=O)C1CCN(S(=O)(=O)c2ccc3c(c2)OCCO3)CC1 (configuration not stated),?,1%,.,22%,-17%,1%,.,.
CC1=C(C(=O)Nc2ccc(F)cc2)C(c2ccc(N(C)C)cc2)NC(=O)N1 (configuration not stated),6%[46.1 µM],.,1%,.,-4%,7%[46.1 µM],.,-1.1%

# Complete entries, looked up by structure. Order of screens: Marburg entry inh	SARS PLpro yeast	Cruzain noTriton	RE007 growth inh	2A StopGo	LASV entry inh	NS1 inh	Cruzain Triton
# Profile of COc1ccc(NC(=O)CN(C)C(=O)Cc2n[nH]c(=O)c3ccccc23)cc1 → 16%[46.1 µM]	2%	.	3%	7%	6%	.	.
# Profile of CN(C)c1cc(N)c2c(n1)CCC2 (tested in a mixture with another compound) → -31%	-6%	1%	2%	12%	?	-22%	1.3%

# Screening data from PubChem BioAssay.
